Screens as filed in PubChem.
ALR H2O2 inh: inhibitors of human sulfhydryl oxidase ALR; P55789; purified ALR, DTT oxidation, H2O2 HRP-luminol luminescence; inhibition, % (concentration not given with the values); 290,000 compounds, 3.8% hits; AID 485317;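 active means mean and each replicate at 75% or more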;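 further: stock transfer was 7.5 nL into about 7.5 µL; 0% = neutral wells and 100% = wells with inactivated enzyme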
Target sequence (P55789 whole entry, looked up): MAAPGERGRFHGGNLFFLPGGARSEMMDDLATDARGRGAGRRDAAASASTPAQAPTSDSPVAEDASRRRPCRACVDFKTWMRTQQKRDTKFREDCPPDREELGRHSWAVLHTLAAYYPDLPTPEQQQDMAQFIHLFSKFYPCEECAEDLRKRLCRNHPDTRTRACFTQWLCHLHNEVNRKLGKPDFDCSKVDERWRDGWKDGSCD
UCH37 inh: inhibitors of human deubiquitinating enzyme UCH37; inhibition, % (concentration not given with the values); purified proteasome/UCH37, Ub-AMC cleavage fluorescence; Q9Y5K5; AID 588478; 330,000 compounds, 0.33% hits;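 active means mean of two replicates above 20%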;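 further: 0% = compound-free wells with enzyme and 100% = wells lacking proteasome; stock transfer was 100 nL into about 20 µL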
Target sequence (Q9Y5K5 whole entry, looked up): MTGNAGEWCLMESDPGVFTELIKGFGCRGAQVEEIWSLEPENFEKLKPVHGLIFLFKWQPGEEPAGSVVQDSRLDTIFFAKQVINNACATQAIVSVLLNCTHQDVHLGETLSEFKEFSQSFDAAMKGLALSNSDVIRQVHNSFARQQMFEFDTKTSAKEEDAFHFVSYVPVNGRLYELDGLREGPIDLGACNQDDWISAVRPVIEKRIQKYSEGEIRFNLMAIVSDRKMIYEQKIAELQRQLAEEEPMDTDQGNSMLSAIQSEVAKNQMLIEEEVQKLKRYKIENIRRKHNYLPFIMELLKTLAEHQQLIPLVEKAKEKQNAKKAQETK
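system = Proteasome-associated human UCH37 deubiquitinase | amount = 0.15 nM proteasome as dispensed | medium = pH 7.4 Tris-HCl (50 mM) with ovalbumin, ATP-MgCl2, DTT | incubation = 30 min preincubation with enzyme, 25 min cleavage at room temperature | detection = AMC fluorescence 355/460 nm | read-out basis = percent inhibition | controls = no-proteasome and no-compound wells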
LANA-H2B inh: blocks KSHV LANA binding to histone H2A/H2B | cell-free LANA-H2A/H2B peptide, fluorescence polarization | inhibition, % (test concentration not listed) | AID 2629 | 320,000 compounds, 0.6% hits | Q9QR71; in the data active means inhibition mostly above about 10%, no sharp cut-off; inactive means mostly below about 6.7%;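 further: stock transfer was 7.5 nL into about 10 µL; 0% = median of vehicle wells and 100% = median of positive control wells; one replicate is shown; the record names a cut of 25% in any replicate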
B2AR ag: agonists of human beta-2 adrenergic receptor inducing internalization; Am2.2-beta2AR cells, FAP receptor internalization, flow cytometry; reference of the scale not given here; response, % (test concentration not listed); 340,000 compounds, 0.43% hits;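 active means response above a set limit, near 3 SD of response in nonfluorescent compounds, cut at about 42% in these data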;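 further: stock transfer was 100 nL into about 11 µL; a reference agonist was the positive control; negative values mostly stem from fluorescent compounds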
Target sequence (P07550 whole entry, looked up): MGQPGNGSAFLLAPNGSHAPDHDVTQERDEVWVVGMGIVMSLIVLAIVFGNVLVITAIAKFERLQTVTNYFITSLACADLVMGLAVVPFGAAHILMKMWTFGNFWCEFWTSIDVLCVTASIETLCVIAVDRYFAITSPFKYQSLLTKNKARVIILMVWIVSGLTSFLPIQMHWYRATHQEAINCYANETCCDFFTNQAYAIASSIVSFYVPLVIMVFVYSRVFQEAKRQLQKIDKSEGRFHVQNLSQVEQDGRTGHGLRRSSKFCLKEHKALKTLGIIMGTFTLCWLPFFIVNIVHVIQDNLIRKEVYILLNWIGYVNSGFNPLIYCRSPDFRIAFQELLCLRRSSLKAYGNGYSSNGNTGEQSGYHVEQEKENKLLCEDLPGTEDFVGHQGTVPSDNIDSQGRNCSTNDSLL
FGF22 binding: shifts melting point of recombinant human FGF22 | AID 651658 | Q9HCT0 | calls only at 9.99 µM | 340,000 compounds, 1.5% hits | recombinant FGF22 thermal shift, SYPRO orange fluorescence; percent of sucrose octasulfate shift, DMSO zero;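 active means melting point raised past a set limit in the mean and every replicate; three in four hits are not shown here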
HNF4A DNA FP: change in binding of human HNF4 alpha to DNA | 360,000 compounds, 0.3% hits | activity change, % at 10 µM | HNF4a-FITC DNA binding, fluorescence polarization, 1 h | P41235; in the data active means activity change above about 30%, passing the limit was not always enough;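 further: controls were the assay level and a saturating level of protein; the project sought stronger binding though the title names inhibitors; some compounds called inactive have numbers as strong as hits; positive values seem to mean higher polarization but the record does not say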
Ecoli growth: inhibitors of Escherichia coli growth | OD600, 23 h; active compounds read low | AID 1053175 | 330,000 compounds, 0.21% hits | OD600 absorbance (test concentration not listed);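 active means OD600 absorbance below the run mean of sample wells minus 3.6 SD, in any replicate, cut at about 0.56 in these data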;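 further: stock transfer was 300 nL into about 60 µL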
* marks the source's active call; other numbers are inactive results; i = inactive; x = not tested or not shown. Not all compounds are listed; count on the stated rates, not on these rows.

Structure	Ecoli growth	LANA-H2B inh	ALR H2O2 inh	HNF4A DNA FP	FGF22 binding	UCH37 inh	B2AR ag
CN(C)C(=O)c1ccc(-c2nnc(NCc3ccccc3)c3ccccc23)cc1	0.67	-6.2	-1	-0.1	x	0.3	-16
Cc1cc(C)nc(SCC(=O)NNC(=O)c2cccs2)n1	0.73	-4.3	-1	2.1	i	1.9	2
Cc1ccc(C(=O)NCCC(=O)N2CCC3(CC2)NCCc2[nH]cnc23)cc1	0.64	-4.6	-2	2.6	i	-1.2	0
Cc1ccc(NC(=O)c2ccc(S(=O)(=O)N3CCOCC3)cc2)nc1	0.71	-4.1	3	-4.0	x	-0.4	0
O=C(O)C(c1cccs1)C1(O)CCCCC1 (stereo unspecified)	0.71	x	x	-1.7	x	2.7	-2
O=C(c1ccc([N+](=O)[O-])cc1)N1CCC(Cc2ccccc2)CC1	0.66	5.1	-8	4.4	x	3.3	0
CCOc1ccc(Oc2ccc(NC(=O)CSc3nncn3C)cc2)cc1	0.62	x	x	-5.5	i	2.7	-6
COc1ccc(-c2cc3ccccc3n2CC(O)CN2CCC(C)CC2)cc1 (stereo unspecified)	0.72	4.0	x	0.8	i	-0.7	17
CCOc1ccc(S(=O)(=O)N2CCCCC2)cc1NC(=O)Cc1cccc(C(F)(F)F)c1	0.71	1.5	x	-3.6	i	-1.3	-2
CC(Sc1nnc(-c2ccccc2F)n1N)C(=O)NCC1CCCO1 (stereo unspecified)	0.63	2.6	-24	0.5	i	0.2	1
N#Cc1ccc(NC(=O)C2=COCCO2)cc1	0.66	-3.1	-2	5.4	i	3.5	-9
C=CCC(=O)N1CCC(n2nccc2NC(=O)CCOc2ccccc2)CC1	0.72	-13	-2	3.2	i	1.7	-1

Fetched by compound from the entries so far, 2 records:
Structure	Ecoli growth	LANA-H2B inh	ALR H2O2 inh	HNF4A DNA FP	FGF22 binding	UCH37 inh	B2AR ag
O=C(O)C(c1cccs1)C1(O)CCCCC1 (stereo unspecified)	0.71	x	x	-1.7	x	2.7	-2
Cc1cc(C)nc(SCC(=O)NNC(=O)c2cccs2)n1	0.73	-4.3	-1	2.1	i	1.9	2

Carrying on.
Structure	Ecoli growth	LANA-H2B inh	ALR H2O2 inh	HNF4A DNA FP	FGF22 binding	UCH37 inh	B2AR ag
CCn1c2ccccc2c2cc(NC(=O)CNCc3ccccc3OC)ccc21	0.64	2.9	-3	5.4	i	-1.3	13
O=C(O)c1ccccc1Nc1ccc(OC(F)F)cc1	0.7	1.5	100*	3.0	i	3.7	5
C=CCNC(=O)c1cccn1-c1ccsc1C(=O)OC	0.78	3.0	1	-4.1	x	4.1	-8
O=C(Cn1c(O)c(/C=C2\C=Nc3ccccc32)sc1=O)N1CCOCC1	0.64	0.3	-1	1.0	i	-0.2	-11
C/C(=N\Nc1nc(N2CCOCC2)nc(N2CCOCC2)n1)c1cccs1	x	-7.9	-4	0.9	i	x	-1
CN1CCN(CCC(=O)N2c3ccccc3Sc3ccc(Cl)cc32)CC1	0.7	-1.7	29	4.1	x	3.4	-5
O=C(CNc1ccccc1)N/N=C/c1cc([N+](=O)[O-])ccc1N1CCCC1	x	20	x	3.4	x	x	3
CC(=O)Nc1ccc(C(=O)N/C(=C/c2ccccc2)C(=O)N2CCCCC2)cc1	0.68	-2.4	2	-1.4	i	-1.0	5
O=C(COC(=O)CC(c1ccccc1)c1ccccc1)NCc1ccc(Cl)cc1	0.65	-7.5	-20	1.9	i	2.0	-5
Cc1ccc(N(CC(=O)NCc2ccccc2)C(=O)c2csnn2)cc1	0.68	7.6	0	-1.7	i	1.7	8
O=S(=O)(Nc1ccccn1)c1ccc(Cl)cc1	0.7	0.1	-1	1.3	x	-3.8	11
C=CCN1C(=O)OC2(CCCCC2)C1(C)O (stereo unspecified)	0.68	-1.9	-1	2.6	x	0.1	0

The closing two records of the part before open the next one.
Structure	Ecoli growth	LANA-H2B inh	ALR H2O2 inh	HNF4A DNA FP	FGF22 binding	UCH37 inh	B2AR ag
O=S(=O)(Nc1ccccn1)c1ccc(Cl)cc1	0.7	0.1	-1	1.3	x	-3.8	11
C=CCN1C(=O)OC2(CCCCC2)C1(C)O (stereo unspecified)	0.68	-1.9	-1	2.6	x	0.1	0
CC(C)Sc1nc(C(F)(F)F)cc(=O)n1-c1ccccc1	0.71	0.4	-5	-1.7	x	-3.7	1
O=C(NCCc1c[nH]c2ccccc12)C1CCC(=O)N(CCc2cccc(F)c2)C1 (stereo unspecified)	0.71	-2.6	x	-2.9	i	3.8	1
COc1cc(C)c(S(=O)(=O)N2CCN(C)CC2)cc1C	0.68	-3.5	-1	-2.7	x	-0.6	-5
COc1cccc(N2CCN(Cc3ccco3)CC2)c1	0.65	-0.9	87*	1.4	i	2.5	6
COc1ccc(C(O)P(=O)(OCC(C)C)c2ccc(N(C)C)cc2)c(OC)c1 (stereo unspecified)	0.66	2.8	-13	-0.2	i	0.6	-3
CCN(C[C@H]1N[C@@](Cc2ccccc2)(C(=O)OC)[C@H]2C(=O)N(Cc3ccccc3)C(=O)[C@@H]12)C(=O)c1ccccc1	0.7	i	1	1.6	i	-0.7	8
CC(C)[C@H](NC(=O)c1ccccc1Cl)C(=O)Nc1nc(-c2ccccn2)cs1	0.71	0.4	-6	1.7	i	4.1	-2
COC(=O)C1CCN(C(=O)COC(=O)c2oc3ccccc3c2C)CC1	0.71	x	x	0.1	i	-1.0	0
O=C(Nc1nc2c(s1)COc1ccccc1-2)c1cccs1	0.75	-5.6	96*	0.9	i	-11	9
CCN(CC)C(=O)c1ccccc1NS(C)(=O)=O	0.66	-4.5	4	-2.8	i	-0.3	7
CCOC(=O)C1=C(COC(=O)COc2cccc(C)c2C)NC(=O)NC1C (stereo unspecified)	0.71	3.6	1	5.3	i	-2.2	0
CCNC(=O)CC1C(=O)N(CC)C(=S)N1NC(=O)c1ccccc1 (stereo unspecified)	0.68	-1.1	-4	1.8	i	2.2	0
O=C(NCc1ccccc1Cl)c1ccc2c(c1)SC1=NS(=O)(=O)CCN12	0.68	-21	-1	-0.8	i	-0.5	7
NC(=O)C1CCCN(C(=O)CNC(=O)C23CC4CC(CC(C4)C2)C3)C1 (stereo unspecified)	0.67	x	x	1.4	i	0.5	-7
Cc1cc(N2CCOCC2)n2nc(C)c(-c3ccc(Cl)cc3)c2n1	0.67	-1.4	-12	-0.5	i	-244	12
O=C1Nc2ccccc2/C1=C/c1ccccc1F	0.69	-6.1	34	1.1	i	2.8	11
COc1ccccc1NC(=O)CCS(=O)(=O)c1ccccc1	0.69	-0.5	-2	0.4	i	-1.9	-5
CC(C)OC(=O)C(CC(=O)O)NCc1ccccc1 (stereo unspecified)	0.65	2.6	1	2.0	x	0.6	3
Cn1cc(CN2CCCC(CO)(Cc3ccccc3)C2)c2ccccc21 (stereo unspecified)	0.68	-1.2	1	2.2	x	3.0	5
Cc1ccc(-n2nc3ccc(NC(=O)C(C)C)cc3n2)cc1	0.69	-3.9	-12	-2.3	x	-27	-21
Cc1nn(C)cc1/C=C/C(=O)c1cccs1	0.66	1.5	4	-1.7	x	-31	-3
Cn1c(=O)c2c(nc(SCCN3CCOCC3)n2Cc2ccc(Cl)cc2)n(C)c1=O	0.76	x	x	-1.2	i	2.7	-8
CCCCN1C(=O)/C(=C/C=C2\N(C)c3ccccc3C2(C)C)SC1=S	0.84	-1.3	-8	x	x	15	x
CCCCC(CC)CNC(=O)CN(C)S(=O)(=O)c1cccc2nsnc12 (stereo unspecified)	0.69	-2.7	-6	3.3	x	4.0	3

An excerpt from above in order of their number in ALR H2O2 inh, smallest number first.
smiles | ALR H2O2 inh
Cc1ccc(-n2nc3ccc(NC(=O)C(C)C)cc3n2)cc1 | -12
COc1ccccc1NC(=O)CCS(=O)(=O)c1ccccc1 | -2
O=C1Nc2ccccc2/C1=C/c1ccccc1F | 34

Later entries.
Structure	Ecoli growth	LANA-H2B inh	ALR H2O2 inh	HNF4A DNA FP	FGF22 binding	UCH37 inh	B2AR ag
Cc1occc1-c1nnc(SCc2nc3ccccc3c(=O)n2CC#N)n1C	0.75	-1.7	-52	8.0	x	3.1	0
CCCCOc1ccc(C(=O)N2CCNC(=O)C2)cc1	0.73	2.0	x	-1.9	i	3.3	-12
O=C(CN1C(=O)S/C(=C/c2cccn2-c2ccc(O)cc2)C1=O)N1CCCC1	0.7	-1.0	x	-4.1	i	1.6	5
CCCC(C)NC(=O)Cc1ccc(Br)cc1 (stereo unspecified)	0.71	-2.7	95*	-5.7	i	6.2	7
CC1(C)Nc2ccc(O)cc2-c2c1ssc2=S	0.76	1.6	99*	-2.0	x	5.3	2
COc1ccccc1-n1c(-c2cccnc2)n[nH]c1=S	0.67	6.0	35	1.3	x	4.5	6
COc1ccc(S(=O)(=O)N(C)C)cc1NCC(=O)Nc1ccc(Br)cc1F	0.69	0.4	-2	3.6	x	4.7	-5
COc1ccccc1NS(=O)(=O)c1cc(C)ccc1C	0.71	-0.4	-1	-0.7	x	-2.8	-1
COc1cc(CC(=O)OCC(=O)N2CCCCC2)cc(OC)c1OC	0.68	-1.2	0	2.2	i	1.1	1
CCc1ccccc1-n1ncc(C(=O)Nc2ccccc2OC)c1C	0.65	2.1	7	1.5	i	3.2	-8
COC(=O)CSc1cc(C)nc2ccc(OC)cc12	0.73	-1.7	24	1.2	x	-3.0	3
COc1ccccc1/C=C(/CC(=O)NCc1ccccc1)c1nc2ccccc2s1	0.72	0.3	2	2.0	x	-6.9	-4
COc1ccc(-n2nnnc2SCC(=O)NCc2ccco2)cc1OC	0.69	-2.0	-6	3.3	i	0.7	7
CCCC(C(=O)OCC)P(=O)(c1ccccc1)c1ccccc1 (stereo unspecified)	0.7	-0.1	x	3.3	x	2.9	-7
O=C(OCc1ccc(Br)cc1)c1cccc(-c2nnc(-c3ccccc3)o2)c1	0.74	0.7	-4	1.5	x	3.8	3
CC(C)(C)NC(=O)C1CC1(c1ccccc1)c1ccccc1 (stereo unspecified)	0.7	1.5	-11	1.9	i	-0.9	-5
O=C(COC(=O)c1ccc(O)cc1O)Nc1cccc2ccccc12	0.68	3.2	4	-5.0	i	0.6	5
Cc1ccccc1-n1c(SCC(=O)NC2CCS(=O)(=O)C2)nc2ccccc2c1=O (stereo unspecified)	0.62	x	x	2.8	i	2.1	2
Cc1[nH]c2ccccc2c1/C=C/c1nc2ccccc2c(=O)[nH]1	0.72	-0.7	0	5.9	i	-5.4	3
CCn1nnnc1SCC(=O)Nc1cc(OC)cc(OC)c1	0.74	-1.7	-6	-1.1	x	0.9	-5
COc1ccc(NC(=O)CN(C)CC(=O)Nc2cccc(C(F)(F)F)c2)cc1	0.69	-2.3	-30	-1.4	i	3.8	1
CCOc1cc2[nH]c(=S)n(Cc3ccc(C(=O)NCCN(CC)CC)cc3)c(=O)c2cc1OCC	0.69	-1.2	x	5.4	i	5.6	22
COCCCn1c(=O)c2ccccc2n(CC(=O)N2CCCc3ccccc32)c1=O	0.69	1.6	0	-0.1	i	4.6	1
CC1CC(C)CN(S(=O)(=O)c2ccc3c(c2)CC(C)N3C(=O)C2CC2)C1 (stereo unspecified)	0.68	2.0	-5	3.3	i	-0.4	-1
CCOCCCN(C)C1CCN(C(=O)c2oc3ccccc3c2NC(=O)Cc2ccc([N+](=O)[O-])cc2)CC1	0.64	-6.7	-8	3.8	i	1.0	-2
CCN(CC(=O)Nc1c(F)cccc1F)C(=O)Cc1c[nH]c2ccccc12	0.67	-2.0	32	4.2	i	0.3	7
COc1c(C)cc(Br)cc1C(=O)Nc1cccc(-c2nc3ncccc3o2)c1	0.71	1.9	2	0.6	i	2.5	5
Cn1nc(C(=O)Nc2ccc3c(c2)OCO3)c2ccccc2c1=O	0.67	1.5	-1	3.3	i	-0.4	9
